Six1-Eya2 inh – qHTS Assay for Inhibitors of the Six1/Eya2 Interaction. Homeobox protein SIX1 (Homo sapiens) + Protein phosphatase EYA2 (Homo sapiens), …. AlphaScreen GST-Six1/His-Eya2 binding, biochemical; active compounds read low; control for the full effect not named in the record. activity change, % (no concentration beside the values). 360,000 tested, 0.56% active. AID 651725, 2012; in the data active = activity change below about -65%; inconclusive = about -30% to -65%; inactive = above about -30%; note: % is set by controls: 0 for no effect and ±100 for the full control effect
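Six1/Eya2 binding was read as AlphaScreen signal after compounds were pinned into GST-Six1 plus His-tagged Eya2 (5X stock 250/500 nM) in pH 8.0 Tris/NaCl/TCEP buffer, beads added, then incubated 1 h, 37 C, dark.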
D2 agonist – Beta-Arrestin HTS for Positive Allosteric Modulators of the Human D2 Dopamine Receptor: Agonists; DiscoveRx PathHunter D2 beta-arrestin, luminescence, 90 min; 100% = 57 uM dopamine signal; 360,000 tested, 0.084% active; D(2) dopamine receptor (Homo sapiens), P14416; activation, % (concentration not given with the values); AID 624465, 2012; in the data active = activation above about 40%; inconclusive = about 15% to 40%; inactive = below about 15%; note: compound concentration not given in the record; the text of the record calls up to 30% inactive
Target sequence (P14416 whole entry, looked up): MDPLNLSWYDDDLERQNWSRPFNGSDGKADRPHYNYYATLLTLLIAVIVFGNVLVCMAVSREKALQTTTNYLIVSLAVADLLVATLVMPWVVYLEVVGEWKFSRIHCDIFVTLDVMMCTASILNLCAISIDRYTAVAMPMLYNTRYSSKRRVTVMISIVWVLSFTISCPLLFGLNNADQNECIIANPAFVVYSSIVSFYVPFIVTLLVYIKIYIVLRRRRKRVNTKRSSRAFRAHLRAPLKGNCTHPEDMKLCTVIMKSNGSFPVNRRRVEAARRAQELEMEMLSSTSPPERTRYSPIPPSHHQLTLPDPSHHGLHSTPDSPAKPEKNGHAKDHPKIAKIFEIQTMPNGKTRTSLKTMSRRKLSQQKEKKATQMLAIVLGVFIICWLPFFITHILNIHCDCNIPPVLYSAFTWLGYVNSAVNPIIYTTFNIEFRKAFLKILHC
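DiscoveRx PathHunter D2 beta-arrestin cells (2,100/well) attached overnight, then compound-stimulated 90 min at 37 C in HBSS/10 mM HEPES/0.1% Tween-20 buffer; beta-galactosidase complementation read by luminescence after 1 h at ambient temperature. Dopamine 57 uM final (EC100) as control.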
CtBP-E1A blk – qHTS Assay for Inhibitors of the CtBP/E1A Interaction; AID 651724, 2012; AlphaScreen GST-E1A/His-CtBP binding, 1536-well; active compounds read low; control for the full effect not named in the record; 340,000 tested, 0.49% active; activity change, % (no concentration beside the values); in the data active means activity change below about -65%; inconclusive means about -30% to -65%; inactive means above about -30%; note: % is set by controls: 0 for no effect and ±100 for the full control effect
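Steps: dispense buffer (Tris pH 8.0, NaCl 300 mM, TCEP 1 mM, BSA, Tween 20); add 5X protein mix (GST-E1A, His-CtBP, 125 nM each); pin 23 nL compound; 2 h at 37 °C, dark; add 5X beads (50 ug/mL); 1 h; read.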
PINK1 modulator – A Quantitative High throughput Screen to Identify Chemical Modulators of PINK1 Expression; PINK1 immunofluorescence, high-content cytometry, 24 h; Potency, µM (series often up to 76.6 µM), for the others: at the top dose activation (PINK1 increase), usual class: activators; AID 624263, 2012; 410,000 tested, 0.2% active; active = well fitted activation curve with a large enough effect; inconclusive = small, poorly fitted or top-dose-only effect; inactive = flat fitted curve, though single readings scatter; cell line not stated here;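 note: potency is the fitted concentration of half-maximal effect; % of control where 0% means no effect; nearly all actives have a fitted effect of over 65% in size; a mitochondrial uncoupler was the plate control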
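Stable cell line treated 24 h with compounds at 5 concentrations (CCCP controls), then fixed and immunostained for PINK1 plus nuclear and cell stains; PINK1 immunofluorescence quantified by laser-scanning microplate cytometry.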
TRPML1 ag – qHTS for Agonists of the Human Mucolipin Transient Receptor Potential 1 (TRPML1) | Mucolipin-1 (Homo sapiens), Q9GZU1 | TRPML1-expressing cells, Ca2+ dye fluorescence, FDSS; host cell line not named in the record; reference of the full effect not given here | activation, % (concentration not given with the values) | 410,000 tested, 0.12% active; in the data active = activation above about 50%; inconclusive = about 30% to 50%; inactive = below about 30%; note: 0% is about no effect; the text of the record puts the active cut at 80%
Target sequence (Q9GZU1 whole entry, looked up): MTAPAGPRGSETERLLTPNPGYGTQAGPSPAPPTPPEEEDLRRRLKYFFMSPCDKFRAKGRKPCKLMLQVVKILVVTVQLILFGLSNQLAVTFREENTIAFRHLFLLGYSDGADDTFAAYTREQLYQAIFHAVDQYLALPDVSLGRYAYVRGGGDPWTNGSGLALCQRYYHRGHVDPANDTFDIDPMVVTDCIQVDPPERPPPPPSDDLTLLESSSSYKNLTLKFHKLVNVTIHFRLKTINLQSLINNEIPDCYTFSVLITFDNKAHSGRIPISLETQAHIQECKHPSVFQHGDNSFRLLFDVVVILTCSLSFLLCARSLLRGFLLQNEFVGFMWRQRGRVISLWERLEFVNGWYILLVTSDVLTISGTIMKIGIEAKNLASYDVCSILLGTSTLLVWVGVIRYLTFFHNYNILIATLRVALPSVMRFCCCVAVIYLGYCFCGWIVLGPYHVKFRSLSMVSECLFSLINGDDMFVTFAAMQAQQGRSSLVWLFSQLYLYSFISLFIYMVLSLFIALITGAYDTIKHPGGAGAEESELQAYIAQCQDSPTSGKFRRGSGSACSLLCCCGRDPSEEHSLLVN
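Cells: TRPML1-DL, 1X Tet inducer, ~16 h at 37 degrees C/5% CO2. Dye: ABD Ca8 no-wash + quencher, 45-90 min RT. Read: 10 s baseline, compound add, 110 s agonist phase; 54-4 EC80 (4uM final), 110 s antagonist phase.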
TRPML1 inh – qHTS for Inhibitors of the Human Mucolipin Transient Receptor Potential 1 (TRPML1) | TRPML1-inducible cells, Ca2+ dye fluorescence, FDSS; active compounds read low; inhibition of EC80 agonist-evoked calcium signal | activity change, negative = inhibition, % (test concentration not listed) | 390,000 tested, 0.02% active | AID 624415, 2012; in the data active means activity change below about -50%; inconclusive means about -30% to -50%; inactive means above about -30%;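 note: stimulus is agonist 54-4 at its EC80 concentration; % is set by controls: 0 for no effect and ±100 for the full control effect; compound concentration not given in the record; the text of the record puts the active cut at -80%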
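Tet-induced TRPML1-DL cells loaded with Ca8 no-wash calcium dye were read kinetically on FDSS. Compound addition was followed by EC80 agonist 54-4 (4 uM final); inhibition was read over 110 s.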
The depositor's hits bear a star; [ ] = remark or other dose.

CNc1nc(-c2ccccc2)cc(-c2ccccc2)n1 was read as Six1-Eya2 inh 5, D2 agonist -1.6, PINK1 modulator 9.1%, TRPML1 ag -0.6 and TRPML1 inh -12.
`CCCCCNCc1cccc(Br)c1` gave Six1-Eya2 inh 6, D2 agonist -1.4, CtBP-E1A blk 12, PINK1 modulator -0.2%[38.3 µM], TRPML1 ag -0.6 and TRPML1 inh -14.
COc1ccc(C(=O)N2CCCCC2c2cc(C(=O)NCc3ccc(Cl)c(Cl)c3)no2)cc1 (stereo not drawn) was read as Six1-Eya2 inh 1, D2 agonist -6.3, CtBP-E1A blk -5, PINK1 modulator 0.7% and TRPML1 ag 0.6.
O=C(NN=C1CCCC1)c1n[nH]c2c1CCC2 was read as Six1-Eya2 inh 1, D2 agonist -2.7, CtBP-E1A blk 10, PINK1 modulator 0.7%, TRPML1 ag 2.2 and TRPML1 inh 2.
For CCC(NC(=O)c1[nH]c(C)c(C(C)=O)c1C)c1ccc(Br)cc1 (stereo not drawn) the results were Six1-Eya2 inh -3, D2 agonist 1.5, CtBP-E1A blk -3, PINK1 modulator 1.8%, TRPML1 ag -0.4 and TRPML1 inh 17.
For O=C(CN1C(=O)NC2(CCCC2)C1=O)N1CCN(S(=O)(=O)c2cccc(C(F)(F)F)c2)CC1 the results were Six1-Eya2 inh 8, D2 agonist -4.5, CtBP-E1A blk 0, PINK1 modulator 0.3%, TRPML1 ag -0.1 and TRPML1 inh -7.
`CCn1ccnc1CN(C)Cc1nc(CCC(C)C)no1` gave Six1-Eya2 inh -2, D2 agonist 2.5, CtBP-E1A blk 9, PINK1 modulator -0.4%, TRPML1 ag -0.1 and TRPML1 inh 6.
Screening C=CCN=C1CC(C)(C)CC(=O)/C1=C(\O)c1ccccc1 returned Six1-Eya2 inh 4, D2 agonist -1.0, CtBP-E1A blk -9, PINK1 modulator 2.0%[38.3 µM], TRPML1 ag -0.4 and TRPML1 inh 11.
O=C(c1cc(-c2cccnc2)nc2ccc(Br)cc12)N1CCN(c2ncccn2)CC1 was read as Six1-Eya2 inh 10, D2 agonist -1.7, CtBP-E1A blk -8, PINK1 modulator 0.1%, TRPML1 ag -0.1 and TRPML1 inh 12.
Cc1ccc(OC(=O)c2ccc3snnc3c2)cc1 was read as Six1-Eya2 inh 22, D2 agonist 1.6, CtBP-E1A blk 5, PINK1 modulator inconclusive, TRPML1 ag 1.2 and TRPML1 inh 6.
CCOc1ccccc1NC1c2ccccc2C(=O)N1c1cccnc1 (stereo not drawn) was read as Six1-Eya2 inh 0, D2 agonist -1.2, CtBP-E1A blk -2, PINK1 modulator -0.6%, TRPML1 ag 0.5 and TRPML1 inh -5.
`COc1ccc(N[C@@H]2CCN3C(=O)c4ccccc4[C@@H]3C[C@H]2O)cc1` gave Six1-Eya2 inh 0, D2 agonist -1.6, CtBP-E1A blk -5, PINK1 modulator -0.9%, TRPML1 ag 0.1 and TRPML1 inh -1.
Screening Cc1cccc(NC(=O)c2ccc(S(=O)(=O)C(F)F)cc2)c1C returned Six1-Eya2 inh 8, D2 agonist -4.5, CtBP-E1A blk 3, PINK1 modulator -2.7%, TRPML1 ag 0.7 and TRPML1 inh -5.
Screening Cc1ccc(NC(=O)COc2ncnc3cc([N+](=O)[O-])ccc23)cc1S(=O)(=O)N1CCOCC1 returned Six1-Eya2 inh -4, D2 agonist 3.7, CtBP-E1A blk -7, PINK1 modulator 0.8%, TRPML1 ag 0.1 and TRPML1 inh 23.
`COc1ccc(-c2cc(C(=O)N3CCN(c4ccccc4)CC3)c3ccccc3n2)cc1` gave Six1-Eya2 inh -5, D2 agonist -3.8, CtBP-E1A blk 8, PINK1 modulator 3.3%, TRPML1 ag 0.3 and TRPML1 inh 6.
Screening CCc1cc(=O)oc2cc(C)c3c(-c4ccc(F)cc4)coc3c12 returned PINK1 modulator -0.3%, TRPML1 ag 0.4 and TRPML1 inh -21.
`O=C(CN1C(=O)c2ccccc2C1=O)OCC(=O)N1CCCCC1` gave Six1-Eya2 inh -2, D2 agonist -2.6, CtBP-E1A blk 10, PINK1 modulator 0.1%, TRPML1 ag -0.1 and TRPML1 inh -17.
COC(C[C@@H]1O[C@@H]1[C@H](O)COCc1ccccc1)OC was read as Six1-Eya2 inh 1, D2 agonist -3.1, CtBP-E1A blk -5, PINK1 modulator 1.2%, TRPML1 ag 0.4 and TRPML1 inh 12.
For Cc1ccc2c(c1)C(c1ccccc1)N(C(=O)c1ccc(Br)cc1)CC(=O)N2 (stereo not drawn) the results were Six1-Eya2 inh -8, D2 agonist 5.8, CtBP-E1A blk -3, PINK1 modulator 4.7%, TRPML1 ag 0.9 and TRPML1 inh -2.
N#CCCN(Cc1ccccc1)C(C(=O)NC1CCCCC1)c1ccnc2ccccc12 (stereo not drawn) was read as Six1-Eya2 inh -2, D2 agonist -3.9, CtBP-E1A blk 3, PINK1 modulator 0.7% and TRPML1 ag 0.2.
Screening Cc1nc2ccc(NS(=O)(=O)c3ccc(F)c(F)c3)cc2s1 returned Six1-Eya2 inh 2, D2 agonist 3.2, CtBP-E1A blk -25, PINK1 modulator -0.3%, TRPML1 ag 1.3 and TRPML1 inh 6.
Screening CCOC(=O)N1CCN(C(=O)c2cc(S(=O)(=O)N3CCCC3)cn2C)CC1 returned Six1-Eya2 inh 5, D2 agonist -2.5, CtBP-E1A blk -1, PINK1 modulator -1.7%, TRPML1 ag -0.1 and TRPML1 inh 6.
`Cc1cccc(NC(=O)CCn2cnnn2)c1C` gave PINK1 modulator 0.7%, TRPML1 ag -0.1 and TRPML1 inh 11.
COCCn1c(SCC(=O)Nc2ccccc2OC)nc2c([nH]c3ccccc32)c1=O was read as Six1-Eya2 inh 8, D2 agonist -1.7, CtBP-E1A blk 5, PINK1 modulator 4.7%, TRPML1 ag 1.0 and TRPML1 inh 14.

Reprinted from the part before: 3 entries; new compounds follow.
Screening CCOC(=O)N1CCN(C(=O)c2cc(S(=O)(=O)N3CCCC3)cn2C)CC1 returned Six1-Eya2 inh 5, D2 agonist -2.5, CtBP-E1A blk -1, PINK1 modulator -1.7%, TRPML1 ag -0.1 and TRPML1 inh 6.
`Cc1cccc(NC(=O)CCn2cnnn2)c1C` gave PINK1 modulator 0.7%, TRPML1 ag -0.1 and TRPML1 inh 11.
COCCn1c(SCC(=O)Nc2ccccc2OC)nc2c([nH]c3ccccc32)c1=O was read as Six1-Eya2 inh 8, D2 agonist -1.7, CtBP-E1A blk 5, PINK1 modulator 4.7%, TRPML1 ag 1.0 and TRPML1 inh 14.
Screening C[C@@H]1CN([C@@H](C)CO)C(=O)c2cc(Br)cnc2O[C@H]1CN(C)C(=O)Cc1cccnc1 returned Six1-Eya2 inh -5, D2 agonist -9.7, CtBP-E1A blk -11, PINK1 modulator -0.2%, TRPML1 ag 0.4 and TRPML1 inh 9.
`Cc1ccc(C(=O)NCC(=O)OCc2cc(=O)n3nc(C4CCCCC4)sc3n2)cc1` gave PINK1 modulator 0.2%, TRPML1 ag 0.3 and TRPML1 inh -15.
`Cc1ccc(N2CCN(CCc3nc4cc(NC(=O)c5ccco5)ccc4n3C)CC2)cc1` gave Six1-Eya2 inh inconclusive, D2 agonist -1.0, CtBP-E1A blk -28, PINK1 modulator inconclusive, TRPML1 ag 0.1 and TRPML1 inh 11.
`C=CCc1cccc(C=Nc2c[nH]c(=O)[nH]c2=O)c1O` gave Six1-Eya2 inh -4, D2 agonist -0.5, CtBP-E1A blk 10, PINK1 modulator 1.4%, TRPML1 ag -0.2 and TRPML1 inh 5.
Screening CCCN1C(=O)C2(c3ccccc31)c1c(oc3ccccc3c1=O)C(=O)N2CCCOC(C)C (stereo not drawn) returned PINK1 modulator 1.2%, TRPML1 ag -0.7 and TRPML1 inh 0.
`Cc1cccc(N(C(=O)CNC(=O)c2ccco2)C(C(=O)NC2CCCC2)c2ccncc2)c1C` (stereo not drawn) gave Six1-Eya2 inh 9, D2 agonist -1.3, CtBP-E1A blk -7, PINK1 modulator -0.6%, TRPML1 ag -0.4 and TRPML1 inh 8.
Cc1cc(C2=NNC(=NCCc3ccccc3)SC2)c(C)n1-c1c(C)n(C)n(-c2ccccc2)c1=O was read as Six1-Eya2 inh -7, D2 agonist 1.0, CtBP-E1A blk 1, PINK1 modulator 1.3%, TRPML1 ag -0.2 and TRPML1 inh 3.
For O=[N+]([O-])c1cc(Cl)ccc1Sc1cccc2cccnc12 the results were Six1-Eya2 inh inconclusive, D2 agonist -0.4, CtBP-E1A blk 7, PINK1 modulator 11%[38.3 µM], TRPML1 ag 0.0 and TRPML1 inh 11.
Screening CCCc1nc2oc(C(=O)c3ccccc3)c(N)c2c2c1COC(C)(C)C2 returned Six1-Eya2 inh 9, D2 agonist 0.6, CtBP-E1A blk 0, PINK1 modulator 14%, TRPML1 ag 0.1 and TRPML1 inh -9.
Cn1c(=O)c2c(-c3ccccc3)n3c(c2n(C)c1=O)C(c1cc(Cl)ccc1O)Nc1ccccc1-3 (stereo not drawn) was read as PINK1 modulator 2.3%, TRPML1 ag -0.7 and TRPML1 inh -5.
For CCOC(=O)Nc1ccc2c(c1)N(C(=O)CN(CC)CC)c1ccccc1C=C2 the results were Six1-Eya2 inh 5, D2 agonist 1.2, CtBP-E1A blk 10, TRPML1 ag 1.0 and TRPML1 inh 28.
Screening O=C(Oc1nsnc1N1CCOCC1)N(c1ccccc1)c1ccccc1 returned Six1-Eya2 inh -2, D2 agonist -3.4, CtBP-E1A blk -2, PINK1 modulator 1.7%, TRPML1 ag 2.4 and TRPML1 inh 5.
`COc1ccc(C(C)=O)cc1Cn1cnc2c(cnn2C)c1=O` gave Six1-Eya2 inh 5, D2 agonist -1.7, CtBP-E1A blk 7 and PINK1 modulator 0.5%.
`C=CCOc1ccccc1CN1CCC(Oc2cc(C(=O)NC3CC3)ccc2OC)CC1` gave Six1-Eya2 inh 0, D2 agonist -6.8, CtBP-E1A blk 4, PINK1 modulator -2.1%, TRPML1 ag 0.2 and TRPML1 inh -3.
Screening COc1ccc(/C=C/C(=O)c2ccncc2)c2ccccc12 returned Six1-Eya2 inh 13, D2 agonist 7.5, CtBP-E1A blk 5, PINK1 modulator -2.6%, TRPML1 ag 2.5 and TRPML1 inh -3.
CCOC(=O)C1=C(C)OC(N)=C(C#N)C1c1cc2ccccc2nc1N1CCCCC1 (stereo not drawn) was read as Six1-Eya2 inh 3, D2 agonist -4.3, CtBP-E1A blk 11, PINK1 modulator -0.6%, TRPML1 ag -0.6 and TRPML1 inh 9.

Screens deposited in PubChem BioAssay by National Center for Advancing Translational Sciences (NCATS).

Not a hit list. Share with any hit: about 1%.
